# Six1-Eya2 inh: inhibitors of human Six1/Eya2 interaction; Q15475+O00167; AlphaScreen GST-Six1/His-Eya2 binding, biochemical; hits give low values; control for the full effect not named in the record; activity change, % (test concentration not listed); 360,000 tested, 0.56% active; in the data active = activity change below about -65%; inconclusive = about -30% to -65%; inactive = above about -30%; also: % is scaled to controls: 0 for no effect and ±100 for the full control effect; compound concentration not given in the record
# Target sequence (O00167 whole entry, looked up): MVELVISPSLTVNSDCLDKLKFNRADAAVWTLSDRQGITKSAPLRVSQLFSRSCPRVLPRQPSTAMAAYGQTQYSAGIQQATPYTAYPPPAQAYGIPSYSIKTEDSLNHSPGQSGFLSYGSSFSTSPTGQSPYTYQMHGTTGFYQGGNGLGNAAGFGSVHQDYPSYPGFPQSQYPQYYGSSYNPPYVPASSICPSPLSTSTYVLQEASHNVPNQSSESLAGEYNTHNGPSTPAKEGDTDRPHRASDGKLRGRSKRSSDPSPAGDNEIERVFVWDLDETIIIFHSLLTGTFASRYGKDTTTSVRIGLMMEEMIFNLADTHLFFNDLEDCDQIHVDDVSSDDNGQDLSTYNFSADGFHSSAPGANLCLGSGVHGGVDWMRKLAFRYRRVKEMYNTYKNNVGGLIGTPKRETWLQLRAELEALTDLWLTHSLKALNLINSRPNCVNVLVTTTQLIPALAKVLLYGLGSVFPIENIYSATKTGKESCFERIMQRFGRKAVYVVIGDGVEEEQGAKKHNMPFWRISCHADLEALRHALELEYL
# Target sequence (Q15475 whole entry, looked up): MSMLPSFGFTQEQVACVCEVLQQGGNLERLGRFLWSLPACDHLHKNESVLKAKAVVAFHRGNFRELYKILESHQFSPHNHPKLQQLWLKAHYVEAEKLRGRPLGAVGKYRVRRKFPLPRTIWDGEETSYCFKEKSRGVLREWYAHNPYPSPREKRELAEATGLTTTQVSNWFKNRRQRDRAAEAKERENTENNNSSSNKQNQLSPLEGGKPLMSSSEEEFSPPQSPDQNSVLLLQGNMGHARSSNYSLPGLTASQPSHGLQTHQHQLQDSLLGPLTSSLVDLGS
#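 Compounds are tested against tagged Six1 and Eya2 proteins bridged by glutathione donor and nickel acceptor beads; after a one-hour incubation at 37 °C without light, AlphaScreen emission is recorded.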
# PINK1 expr mod: changes PINK1 expression | Potency, µM (series often up to 76.6 µM), for inactives: top-dose activation (PINK1 increase), most hits filed as activators | 410,000 tested, 0.2% active | PINK1 immunofluorescence, high-content cytometry, 24 h; active = well fitted activation curve with a large enough effect; inconclusive = small, poorly fitted or top-dose-only effect; inactive = flat fitted curve, though single readings scatter; cell line not stated here;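 also: potency is read from the fitted curve at half-maximal effect; % of control where 0% means no effect; nearly all actives have a fitted effect of over 65% in size; a mitochondrial uncoupler was the plate control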
#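 Measures PINK1 amount and localization on or inside mitochondria by immunofluorescence. Stable cells get compounds at 5 concentrations for 24 hours before fixation and staining; CCCP controls included.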
# D2 PAM: human D2 receptor positive allosteric modulation. potentiation, % (test concentration not listed). DiscoveRx D2 beta-arrestin cells, luminescence, 90 min; 100% = 57 uM dopamine signal. P14416. 360,000 tested, 0.23% active; active = potentiation of 50% or more; inconclusive = 30% to 50%; inactive = 30% or less;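 also: compound concentration not given in the record; tested on top of an EC20 dose of dopamine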
#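 D2 cells co-treated with compound plus 50 nM dopamine (EC20) for 90 min at 37 deg C to detect potentiation. Beta-arrestin recruitment was read as enzyme-fragment luminescence after 1 h at ambient temperature. Full response was set by 57 uM dopamine.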
# TRPML1 inh: human mucolipin-1 channel inhibition; 390,000 tested, 0.02% active; activity change, negative = inhibition, % (no concentration beside the values); TRPML1-inducible cells, Ca2+ dye fluorescence, FDSS; hits give low values; inhibition of EC80 agonist-evoked calcium signal; AID 624415; in the data active means activity change below about -50%; inconclusive means about -30% to -50%; inactive means above about -30%;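 also: stimulus is agonist 54-4 at its EC80 concentration; % is scaled to controls: 0 for no effect and ±100 for the full control effect; compound concentration not given in the record; the text of the record puts the active cut at -80%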
#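 TRPML1-DL cells, Tet-induced overnight (~16 h, 37 °C) at 1,500 cells/well, were loaded with Ca8 no-wash dye plus quencher for 45-90 min at room temperature. Compounds were pinned during FDSS kinetic reading; agonist 54-4 at EC80 (4 uM final) then added.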
# TRPML1 agonist: activates the human TRPML1 channel; activation, % (test concentration not listed); Q9GZU1; TRPML1-expressing cells, Ca2+ dye fluorescence, FDSS; host cell line not named in the record; reference of the full effect not given here; AID 624414; 410,000 tested, 0.12% active; in the data active = activation above about 50%; inconclusive = about 30% to 50%; inactive = below about 30%; also: 0% is about no effect; the text of the record puts the active cut at 80%
#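 Tet-induced TRPML1-DL cells, 1,500 per well, cultured overnight, were loaded with a no-wash Ca2+ dye for 45–90 min. Calcium fluorescence was recorded on the FDSS for 110 s after compound addition, before the EC80 agonist (4 uM 54-4) was added.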
# D2 agonist: agonists of human D2 dopamine receptor (beta-arrestin). AID 624465. activation, % (test concentration not listed). DiscoveRx PathHunter D2 beta-arrestin, luminescence, 90 min; 100% = 57 uM dopamine signal. P14416. 360,000 tested, 0.084% active; in the data active = activation above about 40%; inconclusive = about 15% to 40%; inactive = below about 15%; also: compound concentration not given in the record; the text of the record calls up to 30% inactive
#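 Agonist mode: compounds alone added to overnight-plated D2 PathHunter cells for 90 min at 37 C, with 57 uM final dopamine (EC100) defining full response. Beta-arrestin recruitment detected by chemiluminescent reagent, read after 1 h at ambient temperature.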
# Active calls of the source: *; ? = inconclusive; . = not tested or not shown; & = joins results of further samples; [ ] = dose if it differs, or a comment.
canonical_smiles,Six1-Eya2 inh,PINK1 expr mod,D2 PAM,TRPML1 inh,TRPML1 agonist,D2 agonist
Oc1ccccc1C=NN=Cc1c(O)ccc2ccccc12,29.6,17.9%,-9.5,-11.8,4.5,0.4
Cc1cccc(C)c1N1C(=O)CC(N2CCSCC2)C1=O (stereo unspecified),7.4,3.0%,-2.4,13.5,-0.4,-6.7
COc1cccc(/C=C(\C#N)C(=O)Nc2ccc(NC(C)=O)cc2)c1OC,.,2.6%,.,-1.7,1.7,.
Cc1c(Cl)ccc2sc(NC(=O)c3ccc(S(=O)(=O)N4CCCC4)cc3)nc12,.,-2.2%,.,25.5,1.6,.
O=[N+]([O-])c1cccc2c3c([nH]c12)CCCC3,?,3.5%,-3.1,4.5,-0.1,-3.7
CCn1nc(NS(=O)(=O)c2ccc([N+](=O)[O-])cc2)c2cc3cccc(C)c3nc21,-23.2,?,-27.3,10.3,-0.5,-4.9
O=C(Nc1ccc2c(c1)ncn2C1CCCCC1)c1ccco1,0.9,4.1%,-5.6,9.7,1.1,-0.7
O=C1CN(C(=O)c2ccc(Cl)cc2Cl)C(c2ccc(F)cc2)c2cc(F)ccc2N1 (stereo unspecified),.,-1.3%,.,1.4,0.8,.
CCN1C(N(C)CCc2cccs2)=N[C@@H](c2ccccc2)C(C(=O)OC)=C1C,2.3,-0.8%,-6.6,-9.5,-1.0,-1.5
Cc1cc(C)c(S(=O)(=O)N2CCCCC2)c(C)c1-n1ncnn1,2.7,.,7.9,-16.2,1.3,0.4
OCCSc1nc2ccccc2n1CCOc1ccccc1,0.0,-0.1%[38.3 µM],-11.9,14.5,0.1,0.1
CC1(C)C(=O)Nc2ccccc2N1C(=O)Cn1ncc(Cl)c(Cl)c1=O,2.6,?,-14.3,-8.8,1.0,-2.0
COc1cccc(/C=C/C(=O)OCC(=O)c2ccc(C)c(C)c2)c1OC,-2.1,2.4%,0.0,3.1,6.9,-0.7
COc1ccc(OC)c(NC(=O)CCC(=O)Oc2ccc(C)cc2)c1,13.6,3.7%,6.3,.,.,-7.5
COc1cc(/C=N/N=C2/C(=O)Nc3ccccc32)cc(OC)c1O,-17.0,1.0%,-15.9,32.8,-0.5,-3.1
O/N=C(/CCc1ccccc1)c1ccc2c(c1)OCCO2,0.1,5.8%,3.2,-18.2,3.1,0.8
CCn1c(-c2ccc(S(=O)(=O)N3CCOCC3)cc2)csc1=Nc1ccc(C)c(Cl)c1,.,0.7%,.,-12.5,0.9,.
CC(=O)Nc1ccc(C(=O)COC(=O)c2nc3nc(C)cc(C)n3n2)cc1,-0.9,0.8%,-2.5,18.1,1.2,5.1
N#Cc1c(N)nc2c(c1-c1ccncc1)CCCC2,-2.8,-4.2%[38.3 µM],-4.0,-5.6,-0.2,0.8
CC(C)(Oc1ccc(CCNC(=O)c2ccc(-c3ccccc3)o2)cc1)C(=O)O,3.2,-1.1%,-1.6,-15.6,-0.2,-1.7
Cc1cccc(NS(=O)(=O)c2ccc(C)c(C(=O)OCC(=O)Nc3cc(C)on3)c2)c1,-15.7,3.3%,2.8,5.9,0.6,1.2
Cc1cccc(C)c1NC(=O)CNC(=O)c1ccccc1OCc1ccccc1,-1.5,-0.7%,11.7,-1.9,-0.3,-5.9
Cc1[nH]n(-c2ccccc2)c(=O)c1/C=N\NC(=O)C1COc2ccccc2O1 (stereo unspecified),-88.7*,2.6%,-15.0,-6.1,0.1,-4.0
O=C(Nc1ccc(Br)cc1F)N1CCC(CN2CCCC2)CC1,.,0.8%,.,35.8,2.6,.
O=C(CS(=O)(=O)c1ccccc1)c1ccc2c(c1)OCCO2,1.5,-0.1%,-2.3,-15.7,-1.3,2.0
CC(=O)Nc1ccc(S(=O)(=O)Nc2nc3ccccc3nc2Nc2ccc3ccccc3c2)cc1,6.8,6.7%,11.6,-5.1,4.4,-1.0
CN(C)S(=O)(=O)c1cccc(NC(=O)CNc2cccc(S(=O)(=O)N3CCCCC3)c2)c1,-2.3,1.6%,-13.5,0.8,-0.3,-2.4
O=C1NC(Cc2ccc(O)cc2)c2nc3ccccc3c(=O)n2-c2ncccc21 (stereo unspecified),7.8,1.3%,-7.3,20.5,-0.2,-3.5
O=C(Nc1nccs1)c1ccc([N+](=O)[O-])cc1Cl,3.4,3.5%,4.8,-3.6,-0.6,?
O=C(NC1CCCCC1)c1cc([N+](=O)[O-])[nH]n1,-0.1,-1.3%,-14.1,-4.6,-0.1,1.7
COc1ccc2nc(NC(=O)C3CCN(S(=O)(=O)c4cccc5nsnc45)CC3)sc2c1,-29.4,-1.8%,?,-5.4,3.2,2.6
O=C(COC(=O)c1cncc(Br)c1)NC1CCCC1,6.7,0.8%,-2.0,5.2,-0.3,-4.6
Cc1ccsc1C(=O)N1CCCC(CO)(Cc2ccccc2)C1 (stereo unspecified),25.2,-0.1%,-0.6,2.0,2.3,-4.3
NNC(=O)C1CC(O)CN1S(=O)(=O)c1ccc2ccccc2c1 (stereo unspecified),-2.4,0.9%,2.2,-4.9,1.1,3.0
CCn1cc(CCC(=O)NCc2ccccc2OC)c2ccccc21,-22.1,0.7%&-0.9%,-7.5,-1.6&-6.6,3.8&-0.3,-13.4
COc1ccccc1C(=O)COC(=O)COc1ccc(C#N)cc1,1.0,1.0%,1.7,-8.9,1.2,-4.0
CCCNC(=O)Cc1ncn[nH]1,-2.0,-0.1%,-4.2,-6.2,-0.2,-2.3
Cc1cc(C)c2c(=O)cc(C(=O)Nc3sc4c(c3C(=O)NCC3CCCO3)CCCC4)oc2c1 (stereo unspecified),.,15.1%,.,-17.1,2.2,.
Cc1ccc(-n2c(-c3ccco3)nc3nc4ccccc4nc32)cc1F,11.2,7.7%,-24.4,-4.7,0.1,1.5
N#Cc1nc(-c2ccco2)oc1NCc1ccccc1Cl,?,-2.6%,-8.0,17.3,-0.3,1.6
Cc1cc(C(=O)COC(=O)c2ccccc2O)c(C)n1Cc1cccs1,-7.5,1.8%[38.3 µM],-21.8,2.9,0.8,-0.8
O=C(c1ccco1)N1CCN(CC(=O)N2c3ccccc3CCc3ccccc32)CC1,1.8,0.0%,-4.7,-12.3,-0.2,-1.7
CSc1ccc(Cl)c(C(=O)OCC(=O)Nc2ccccc2OC(F)F)c1,17.0,4.4%,-4.4,-1.0,0.9,-4.0
COc1ccc(-c2nc(SCC(=O)Nc3ccc4c(c3)OCCO4)c(-c3ccc(C)cc3)[nH]2)cc1OC,.,3.3%,.,1.0,2.2,.
CC(C)(C)OC(=O)CNC(=O)c1[nH]cnc1C(=O)N[C@@H](Cc1ccccc1)C(=O)OC(C)(C)C,-6.4,5.2%,-11.0,32.1,1.0,0.9
N#Cc1c(N(CCO)CCO)nc(N)c2c(N)nc3c(c12)CC(=O)N3CC1CCCO1 (stereo unspecified),-13.1,3.5%,-11.7,32.0,-0.1,-4.2
Cc1ccsc1C(=O)N1CCC(CO)(Cc2ccccc2)CC1,3.0,0.0%,-1.2,-6.5,0.0,-3.3
Cc1ccc(OCCOC(=O)c2c(-c3ccccc3)noc2C)cc1,54.5,5.1%,-9.8,2.6,0.6,2.5
O=C(NCc1ccccc1)C1c2ccccc2OCC(=O)N1CCc1c[nH]c2ccccc12 (stereo unspecified),-7.4,-0.2%,.,.,-0.1,.
O=C(COC(=O)c1ccc(O)cc1O)c1ccc(Cl)cc1,1.9,13.8%,-8.0,22.2,0.9,3.0
O=C(CNS(=O)(=O)c1cccc2nonc12)NCc1ccc(F)cc1,1.2,-1.8%,-3.8,-0.7,-0.7,-3.4
NC(=O)c1nsc(C(=O)N(c2ccc(Cl)cc2)C(C(=O)NCC2CCCO2)c2cccs2)c1N (stereo unspecified),0.8,-1.1%,-9.5,4.6,0.1,1.6
CN(C)S(=O)(=O)c1ccc(C(=O)N2CCN(S(=O)(=O)c3ccc4c(c3)OCCO4)CC2)cc1,-0.4,-1.9%,-4.1,0.0,5.5,-0.5
COc1ccc(CCNC(=O)C(C)Sc2ccc(C)cc2)cc1OC (stereo unspecified),5.7,1.3%,-4.2,-15.6,-0.7,-3.4
Cc1cc(C)cc(N(CC(=O)NCc2ccco2)C(=O)CCC(=O)Nc2nccs2)c1,-1.4,5.3%,-1.8,12.2,0.1,0.8
CC[N+](CC)(CC)CCOc1cccc(OCC[N+](CC)(CC)CC)c1OCC[N+](CC)(CC)CC,0.7,0.0%,-9.1,-0.5,-0.3,-1.7
COc1ccc(C(=O)SC2=NCCS2)cc1,1.2,.,-15.7,2.3,-0.7,-2.3
C[C@H]1CNC(=O)c2c(C(=O)Nc3ccc(CNC(=O)OC(C)(C)C)cc3)ncn21,-19.0,-0.5%,.,.,.,3.0
Cc1oc2ccc(O)c(CN3CCOCC3)c2c1C(=O)c1ccc(Cl)cc1,-13.0,-0.8%,21.3,2.9,1.8,-0.6
COc1ccc(CCNC(=O)Cc2cccs2)cc1OC,-4.5,-0.9%,-0.4,41.8,-0.1,0.9

# Later entries
canonical_smiles,Six1-Eya2 inh,PINK1 expr mod,D2 PAM,TRPML1 inh,TRPML1 agonist,D2 agonist
Cc1cc(Br)ccc1NC(=O)CN(C)C(=O)c1ccc(-n2cncn2)c([N+](=O)[O-])c1,4.4,1.7%,-4.5,5.1,1.7,4.0
O=C(CCCn1c(=S)[nH]c2cc3c(cc2c1=O)OCO3)N1CCN(c2ccccc2F)CC1,1.0,3.8%[38.3 µM],-0.2,4.5,1.8,2.9
O=C(COC(=O)c1cnccn1)Nc1ccccc1-c1ccccc1,2.1,1.7%,10.8,-6.1,-0.8,0.3
CCc1ccc(NC(=O)c2noc(C(C)C)c2[N+](=O)[O-])cc1,-0.9,2.0%,-3.5,-1.5,0.1,4.6
COc1cc2[nH]c(=S)nc(NCCc3ccc(S(N)(=O)=O)cc3)c2cc1OC,-89.5*,10.3%,-3.8,9.8,-0.7,2.9
COc1ccc(CNC(=O)C2CCN(c3nnc(-n4c(C)ccc4C)s3)CC2)c(OC)c1,.,0.7%,.,12.7,0.0,.
COc1ccccc1C/C(N)=N/OC(=O)COc1cccc(C)c1,52.1,10.0%,-0.2,36.3,3.6,2.1
COc1nc(OC)nc(N2CCC(C(=O)NCC3CCCCC3)CC2)n1,0.3,9.9%[38.3 µM],-4.2,-2.3,-0.1,-0.2
C#CCN1C=CC(=O)[C@@H](OC(=O)Nc2ccccc2Br)[C@H]1c1ccccc1Br,-1.6,-1.2%,-7.2,-3.6,2.4,-1.9
CC1C(C#N)=C(N)OC2=C1C(=O)CCC2 (stereo unspecified),-4.9,1.5%,-0.7,-1.1,0.1,-0.1
CCCn1c(N)c(C(=O)CSc2nnc(Cc3ccccc3)o2)c(=O)n(C)c1=O,-3.4,0.9%,14.6,0.8,-0.6,-0.1
CCCC(=N)C1=C(O)CC(CC(C)SCC)CC1=O (stereo unspecified),3.7,-0.4%,5.1,16.7,0.8,-1.8
O=C(CSc1nc2ccccc2[nH]1)N/N=C/c1ccncc1,-5.6,-0.9%,-0.4,7.3,0.8,0.1
